Vaccinia mCherry = vaccinia inhibition (mCherry reporter); Vaccinia virus mCherry reporter infection, fluorescence; about a quarter of the inactives have no number; Potency, µM (highest dose often 36.5 µM), without a hit: top-dose activity change, negative = inhibition, hits mostly inhibitors; hit rate 0.63% among 310,000; AID 720579; active = well fitted inhibition curve with a large enough effect; inconclusive = small, poorly fitted or top-dose-only effect; inactive = no such curve, though single readings can be large or run the other way; tested in A549 cells; also: nearly all actives have a fitted effect of over 35% in size; inactives centre near -10
VACV Venus inh = vaccinia inhibition (Venus reporter). hit rate 0.46% among 330,000. Potency, µM (titrated, usually from 36.5 µM), for inactives: at the top dose activity change, negative = inhibition, most hits filed as inhibitors. Vaccinia virus Venus reporter expression, fluorescence; active means well fitted inhibition curve with a large enough effect; inconclusive means small, poorly fitted or top-dose-only effect; inactive means no such curve, though single readings can be large or run the other way; tested in A549 cells; also: nearly all actives have a fitted effect of over 30% in size; inactives centre near -10
An asterisk follows results filed as active; i = inactive; ? = inconclusive; . = no result given; & = joins results of further samples; [ ] = another dose, or the depositor's remark. % is scaled to controls: 0 for no effect and ±100 for the full control effect; potency is read from the fitted curve at half-maximal effect.

SMILES	Vaccinia mCherry	VACV Venus inh
CCOC(=O)[C@H]1[C@H]2COc3ccc(Br)cc3[C@@H]2N2C(=O)CN(CC3CCCO3)C(=O)[C@@]12C (some centres undefined)	-1%	-9%
O=c1oc2ccc3ccccc3c2cc1-c1nnc(Nc2ccc(F)cc2)s1	-19%	-10%
CCOC(=O)c1nn(-c2ccc(F)cc2)c(=O)c2c(N)scc12	-33%	3%
Cc1cnc(C(=O)OC(C)C(=O)NCc2ccccc2)cn1 (centres undefined)	-14%	-8%
N#Cc1cc2cc3c(cc2nc1SCC(=O)N1CCCC1)OCCO3	-5%	11%
CCOC(=O)c1cnc2c(-c3ccccc3)c(C)nn2c1N	-26%	-28%
O=C(Cn1cnc2cc([N+](=O)[O-])ccc2c1=O)Nc1cccc(S(=O)(=O)N2CCOCC2)c1	-2%	-8%
CC(C)(C)OC(=O)N1CCC(C(=O)Nc2ccc(C(=O)N3CCOCC3)cc2)CC1	i	-7%
CCOc1ccc(S(=O)(=O)Nc2ccc(C(=O)NCC(c3ccco3)N(C)C)cc2)cc1 (centres undefined)	i	-11%
CCNc1nc(CN2CCCCC2)nc2scc(-c3ccccc3)c12	-21%	-18%
COc1ccc(CCC(=O)N2CC(C)OC(C)C2)cc1 (centres undefined)	i	-11%
COCCN(C(=O)Nc1ccccc1)c1ccccc1	.	-10%
COc1ccc(N2CCN(C(CNC(=O)c3cccs3)c3ccco3)CC2)cc1 (centres undefined)	-5%	-13%
O=C1NC[C@H](Cc2ccccc2)N(CCc2cccc(F)c2)C1=O	-14%	-7%
Cc1ccccc1OCC(O)Cn1c2ccccc2c2ccccc21 (centres undefined)	-25%	-24%
CCN(C(=O)CSc1nc2ccccc2n1CC)C1CCS(=O)(=O)C1 (centres undefined)	-16%	-5%
Cc1ccc2nc(C(F)C(F)(F)F)[nH]c2c1 (centres undefined)	-17%	-5%
COC(=O)c1ccc(Cl)cc1N(Cc1c(F)cccc1Cl)S(C)(=O)=O	-16%	-19%
COc1ccc(Cl)cc1NC(=O)CN(C)C(=O)Cn1cnc2c1c(=O)n(C)c(=O)n2C	-6%	-11%
Cc1ccc(CNC(=O)c2ccc(-n3c(C)cc4c3CCCC4)cc2)cc1	-14%	-9%
C=CCn1c(N)c(C(=O)Nc2ccc(C)cc2)sc1=S	?	-6%
CSc1ccc(CNC(=O)CCn2c(=O)c3cccn3c3ccc(F)cc32)cc1	2%	-2%
C#CCOCCOCCOCCNc1nc(N2CCN(C(=O)[C@H](CCC(=O)O)n3cc(C(N)CC(C)C)nn3)CC2)nc(N2CCN(C(=O)[C@H](Cc3cc4ccccc4[nH]3)n3cc(C(N)[C@H](C)CC)nn3)CC2)n1 (some centres undefined)	i	-1%
N#CCCN(C(=O)COC(=O)CCc1c[nH]c2ccccc12)c1ccc(F)cc1	-4%	-17%
CCOC(=O)c1c(C)[nH]c(C)c1C(=O)COC(=O)/C=C/c1ccc(OC)cc1	-9%	?
CCCCN(C(=O)C(C)Oc1ccc(Cl)cc1)c1c(N)n(CCCC)c(=O)[nH]c1=O (centres undefined)	i	-13%
CN(Cc1ccccc1)C(=O)c1nc[nH]c1C(=O)N(C)Cc1ccccc1	i	-9%
Clc1ccccc1OCc1nnc2n1CCCCC2	i	-20%
Cc1nn(CC(=O)NCC(C)c2ccccc2)c(=O)c2cccn12 (centres undefined)	4%[7.34 µM]	6%[7.34 µM]
Cc1ccc(NC(=O)COC(=O)CNC(=O)c2ccco2)cc1	i	-15%

Another view of part of the listing above:
canonical_smiles,Vaccinia mCherry,VACV Venus inh
N#CCCN(C(=O)COC(=O)CCc1c[nH]c2ccccc12)c1ccc(F)cc1,-4%,-17%
CCOC(=O)c1c(C)[nH]c(C)c1C(=O)COC(=O)/C=C/c1ccc(OC)cc1,-9%,?
CCCCN(C(=O)C(C)Oc1ccc(Cl)cc1)c1c(N)n(CCCC)c(=O)[nH]c1=O (centres undefined),i,-13%
CN(Cc1ccccc1)C(=O)c1nc[nH]c1C(=O)N(C)Cc1ccccc1,i,-9%
Clc1ccccc1OCc1nnc2n1CCCCC2,i,-20%

(continued)
SMILES	Vaccinia mCherry	VACV Venus inh
CN1CCc2nc(NC(=O)COc3ccc(C#N)cc3)sc2C1	i	-7%
C/C=C/C1=CC(=O)C[C@H](c2ccc(F)cc2)C1	?	-9%
CCC(=O)NNc1nc2c(F)cc(F)cc2s1	?	6%
Nc1cc(Cl)cc(Cl)c1	i	-14%
COc1cc(C(=O)Nc2sc3c(c2C#N)CCCC3)c(Br)c(OC)c1OC	?	-25%
CSc1ncnc2c1ncn2C1OC(CO)C(O)C1O (centres undefined)	-23%	-22%
CCN(C(=O)c1ccnn1C)c1ccccc1	-13%	12%
COc1ccc(S(=O)(=O)N2CCOCC2)cc1NC(=O)CSc1nnc2c(n1)[nH]c1ccccc12	31%[activator]	-18%
CC(=O)c1ccc(NC(=O)C2CCN(S(=O)(=O)c3ccc4[nH]c5c(c4c3)CCCCC5)CC2)cc1	-18%	-14%
COc1ccc(OC)c(S(=O)(=O)N2CCC(C(=O)NCc3ccccn3)CC2)c1	-18%	1%
CC(NC(=O)CCC(=O)c1cccs1)c1ccccc1 (centres undefined)	-14%	-12%
COc1cccc(CN2CC(C(=O)NCc3ccc(C)c(F)c3)CCC2=O)c1 (centres undefined)	-22%	-22%
COc1ccccc1N1CCN(CC(=O)Nc2ccc(Cl)c(C(F)(F)F)c2)CC1	-2%	-13%
Cc1ccc(C(C)n2cc(C(=O)NCc3cccnc3)nn2)cc1 (centres undefined)	-18%	-11%
O=C1c2ccccc2C(=O)N1CCCCCCN1C(=O)c2ccccc2C1=O	-14%	1%

In another format: two of the compounds above.
Compound,Vaccinia mCherry,VACV Venus inh
Nc1cc(Cl)cc(Cl)c1,i,-14%
COc1cc(C(=O)Nc2sc3c(c2C#N)CCCC3)c(Br)c(OC)c1OC,?,-25%

Following part
SMILES	Vaccinia mCherry	VACV Venus inh
COCCN(C(=O)COC(=O)C1CC1)c1c(N)n(Cc2ccccc2)c(=O)[nH]c1=O	i	-12%
CCCCCC(=O)NC(NC(=S)Nc1ccc(S(N)(=O)=O)cc1)C(Cl)(Cl)Cl (centres undefined)	-23%	-19%
COC(=O)c1c(C)oc(C)c1S(=O)(=O)N(C)C1CCCCC1	-11%	-14%
Cc1ccc(OC(C)c2nnc(N)s2)cc1Cl (centres undefined)	?	-13%
c1ccc(-c2nnc(SCc3ccncc3)o2)cc1	1%	-22%
CCN(CC)S(=O)(=O)c1ccc(-c2nnc(SCC(=O)Nc3nnc(C)s3)n2CC)cc1	-13%	-13%
CCOC(=O)c1ccccc1NC(=O)C1=COCCO1	-30%	-24%
O=C(COC(=O)c1ccc(O)cc1)Nc1ncc(Cl)cc1Cl	i	-2%
O=c1c2ccccc2ncn1-c1ccc(Cl)c(Cl)c1	-8%	7%
Cc1cc(C)cc(NC(=O)CCCn2nc(C)c3c(C)n(-c4ccccc4)nc3c2=O)c1	i	-5%
Cc1cc(C)c(S(=O)(=O)Nc2ccc3c4c(cccc24)CC3)c(C)c1	?	?
CCC(Sc1nc2n[nH]c(C)c2c(=N)n1-c1ccccc1Cl)C(=O)N(CC)CC (centres undefined)	-15%	-10%
CCc1nc(Nc2cc(OC)ccc2OC)c2oc3ccccc3c2n1	i	-10%
COC(=O)CCCn1cc(CN(C)C2CN(Cc3cn(CCCC(=O)OC)nn3)S(=O)(=O)C2)nn1 (centres undefined)	-5%	0%
O=C1SCC(c2ccccc2)=NN1Cc1ccccc1	-8%	0%

Structures above with a CF3 group (two):
SMILES	Vaccinia mCherry	VACV Venus inh
Cc1ccc2nc(C(F)C(F)(F)F)[nH]c2c1 (centres undefined)	-17%	-5%
COc1ccccc1N1CCN(CC(=O)Nc2ccc(Cl)c(C(F)(F)F)c2)CC1	-2%	-13%

Carrying on.
SMILES	Vaccinia mCherry	VACV Venus inh
Cn1c(CCc2nc3ccccc3[nH]2)nnc1SCC#N	i	-13%
COc1ccccc1NC(=O)Nc1cnccn1	-1%	-8%
Clc1ccc(Cc2noc(CN3CCN(c4ccccc4)CC3)n2)c(Cl)c1	i	43%[activator]
N#CC(c1ccccc1)c1cnccn1 (centres undefined)	i	-4%
COC(=O)[C@@]1(Cc2ccc(OC)cc2)[C@H]2c3cc(C(=O)N4CCCC4)n(Cc4ccccc4)c3C[C@H]2CN1C(=O)c1ccccc1	i	-22%
CCNC(=O)c1cc(S(=O)(=O)N(C)C)c(Cl)cc1Cl	10%	-15%
Cn1c(O)c(C=NCCN2CCNCC2)c(=O)[nH]c1=O	i	-15%
CC1=Nc2ccc(C)cc2/C1=C/c1c(N)n2oc(C)cc2nc1=O	-9%	62%&39%[activator]
COc1ccc([N+](=O)[O-])cc1NC(=O)C(C)Sc1nc(-c2ccccc2)cs1 (centres undefined)	-17%	-7%
CCCn1ccc2c(OCC(=O)Nc3ccccc3C(=O)OCC)cccc2c1=O	?	-28%
Cc1ccc(Cc2c(-c3ccc(C)cc3)nc3c(Cl)cc(C(F)(F)F)cn23)cc1	i	10%
COc1ccc(N2CC(NC(=O)COc3cccc(C)c3)CC2=O)cc1OC (centres undefined)	-15%	-8%
COc1ccc(-c2nc3c4ccccc4n(CC(=O)Nc4ccc(C(C)=O)cc4)c(=O)n3n2)cc1	-10%	-7%
C[C@@H]1CN([C@@H](C)CO)C(=O)CCCn2nncc2CO[C@H]1CN(C)C(=O)Nc1ccc(-c2cccs2)cc1	-26%	-15%
c1ccc2cc3[nH]c(CN4CCOCC4)nc3cc2c1	.	-26%
CCCOc1ccc(Nc2nc(SC)ncc2C(=O)OCC)cc1	-8%	-7%
O=C(CSc1nnc(N2CCCC2)n1-c1cccc(Cl)c1)N1CCN(c2ccccn2)CC1	-25%	-25%
COc1ccc(C(C)=O)cc1COC(=O)CCCN1C(=O)c2ccccc2C1=O	i	4%
C=CCOc1ccccc1CN1CCCC(CCC(=O)N(C)CCc2ccccn2)C1 (centres undefined)	-4%	-8%
COc1ccc([C@H]2C[C@@H](n3cc(C4CC4)nn3)[C@H](O)CN2CC2CCCCC2)cc1	0%	-22%
COc1ccc(-c2cc(-c3ccccc3)nc(SCC(=O)CC(=O)OC(C)C)c2C#N)cc1	-22%	-3%
CCOC(=O)CC(=O)c1[nH]c(C)c(C(=O)OCC)c1C	-6%	-10%
Cn1cc(C(=O)Nc2ccc3c(c2)CCC3)cn1	-6%	-4%
CCC(=O)N1CCc2cc(S(=O)(=O)Nc3ccc4c(c3)OCCO4)ccc21	-29%	?
CCOc1ccc(NC(=O)C(Cc2ccccc2)N2C(=O)c3cccc4cccc(c34)C2=O)cc1 (centres undefined)	i	60%[activator]
CC(C)N(Cc1nccn1C)C(=O)C1CCC(=O)N(CCc2ccccc2)C1 (centres undefined)	i	1%
O=C1[C@H]2[C@@H](C3CC3)N3C(=O)CN(CC4CC4)C(=O)[C@@]3(Cc3ccccc3)[C@H]2C(=O)N1c1ccccc1	i	0%
COc1ccccc1NC(=O)N1CC(=O)Nc2sc3c(c2C1c1ccccc1)CCCC3 (centres undefined)	-21%	-18%
COc1cc(/C=C/C2=CC(C)(C)NC(=S)N2)cc(OC)c1OC	-8%	-15%
O=C(OCn1nnc2ccccc2c1=O)c1ccc(F)c(S(=O)(=O)N2CCOCC2)c1	-3%	-6%
Cc1ncc2c(c1CNC(=O)c1ccc3c(c1)OCO3)CCN(C(=O)/C=C/c1ccccc1Cl)C2	-8%	-8%
Cc1c(O)nc(SCC(=O)Nc2ccc3c4c(cccc24)CC3)n(-c2ccc(F)cc2)c1=O	-16%	4%
CS(=O)(=O)Nc1nnc(Cc2ccccc2)s1	.	-10%
CC(Sc1oc(-c2ccco2)nc1S(=O)(=O)c1ccc(Br)cc1)c1ccccc1 (centres undefined)	-14%	-5%
C=CCNC(=O)C(=O)Nc1ccc2c(c1)N(S(=O)(=O)c1cccs1)CCC2	?	?
CN(Cc1ccccc1)S(=O)(=O)c1ccccc1[N+](=O)[O-]	-8%	-5%
O=C(N/C(C(=O)N1CCOCC1)=C(\Sc1ncccn1)c1ccccc1)c1ccccc1	-11%	1%
CSc1nc2ccccc2c(=O)n1-c1cccnc1	i[7.34 µM]	2%[7.34 µM]
OCCC1CN(Cc2nc3ccccc3s2)CCN1C1CCCCC1 (centres undefined)	i	-16%
CC(=O)c1ccccc1NC(=O)COC(=O)CSCC(=O)Nc1cc(C)on1	-12%	4%
CC(=O)Nc1c(C)ccc(S(N)(=O)=O)c1C	i	-7%
COc1ncnc2c1oc1nc(C(C)C)c3c(c12)CC(C)(C)OC3	-2%	-1%
CCN1CCN(CCCNC(=O)c2cc3c(=O)n(CC)c4ccccc4c3s2)CC1	-7%	-2%
Cc1ccc(NC2CCCN(C(=O)c3ccc4[nH]ccc4c3)C2)cc1C (centres undefined)	-12%	-15%
CCOc1ccccc1NC(=O)c1c(NCc2ccc(C)o2)sc2c1CCC(C)C2 (centres undefined)	i	4%
CCc1ccc(CNC(=O)CN2C(=O)c3cccnc3Oc3ccc(Cl)cc32)cc1	-9%	-6%
OC(CNCC1COc2ccccc2O1)COc1ccccc1F (centres undefined)	-8%	-6%
CCOc1ccc(NC(=S)N2CCC(NC(=O)c3ccccc3C)CC2)cc1	i	-4%
CCc1nnc(NC(=O)CCC(=O)O)s1	-20%	-7%
O=C(COc1ccccc1Br)Nc1ccc2c(c1)OCCCO2	i	-1%
CCc1nnc(NC(=O)CSc2nnc(Cc3ccccc3)o2)s1	i	-16%
CNc1c([N+](=O)[O-])cnn1-c1ccccn1	-2%	1%

Compounds as they come (roughly 0.87% active in at least one column).
